Screening data: PubChem BioAssay, National Center for Advancing Translational Sciences (NCATS)
D2 agonist: agonists of human D2 dopamine receptor (beta-arrestin); DiscoveRx PathHunter D2 beta-arrestin, luminescence, 90 min; 100% = 57 uM dopamine signal; activation, % (no concentration beside the values); hit rate 0.084% among 360,000; in the data active = activation above about 40%; inconclusive = about 15% to 40%; inactive = below about 15%; also: compound concentration not given in the record; the text of the record calls up to 30% inactive
Target sequence (P14416 whole entry, looked up): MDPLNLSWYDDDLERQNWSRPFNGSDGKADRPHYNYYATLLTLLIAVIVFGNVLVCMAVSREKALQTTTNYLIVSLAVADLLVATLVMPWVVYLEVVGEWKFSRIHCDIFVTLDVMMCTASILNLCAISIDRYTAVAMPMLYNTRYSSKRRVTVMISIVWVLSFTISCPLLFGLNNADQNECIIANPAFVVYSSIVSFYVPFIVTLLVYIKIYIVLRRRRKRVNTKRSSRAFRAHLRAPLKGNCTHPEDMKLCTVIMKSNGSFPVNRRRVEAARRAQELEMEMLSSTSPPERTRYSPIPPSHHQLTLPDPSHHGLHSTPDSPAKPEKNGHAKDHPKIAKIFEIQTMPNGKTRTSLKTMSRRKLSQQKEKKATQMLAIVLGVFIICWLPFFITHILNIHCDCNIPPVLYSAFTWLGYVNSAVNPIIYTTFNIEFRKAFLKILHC
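DiscoveRx PathHunter D2 beta-arrestin cells (2,100/well) attached overnight, then compound-stimulated 90 min at 37 C in HBSS/10 mM HEPES/0.1% Tween-20 buffer; beta-galactosidase complementation read by luminescence after 1 h at ambient temperature. Dopamine 57 uM final (EC100) as control.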
D2 potentiator: potentiates the human D2 dopamine receptor allosterically | P14416 | DiscoveRx D2 beta-arrestin cells, luminescence, 90 min; 100% = 57 uM dopamine signal | potentiation, % (concentration not given with the values) | hit rate 0.23% among 360,000 | AID 624464; active = potentiation of 50% or more; inconclusive = 30% to 50%; inactive = 30% or less;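 also: compound concentration not given in the record; tested on top of an EC20 dose of dopamine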
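PathHunter D2 cells, attached overnight at 37 deg C, received compound in DMSO plus dopamine at EC20 (50 nM final) for 90 min at 37 deg C. Beta-arrestin recruitment was read as luminescence after 1 h with detection reagent at ambient temperature.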
CtBP-E1A inh: CtBP/E1A binding inhibition; AlphaScreen GST-E1A/His-CtBP binding, 1536-well; active compounds read low; control for the full effect not named in the record; activity change, % (concentration not given with the values); hit rate 0.49% among 340,000; AID 651724; in the data active means activity change below about -65%; inconclusive means about -30% to -65%; inactive means above about -30%; also: % is scaled to controls: 0 for no effect and ±100 for the full control effect
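In 5 uL wells, 23 nL compound meets equimolar GST-E1A and His-CtBP (5X stock 125 nM each) for 2 h, 37 °C. Beads (5X, 50 ug/mL) then 1 h, 37 °C, dark.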
PINK1 expr mod: modulators of PINK1 expression; PINK1 immunofluorescence, high-content cytometry, 24 h; Potency, µM (series often up to 76.6 µM), for the others: at the top dose activation (PINK1 increase), hits mostly activators; hit rate 0.2% among 410,000; AID 624263; active = well fitted activation curve with a large enough effect; inconclusive = small, poorly fitted or top-dose-only effect; inactive = flat fitted curve, though single readings scatter; cell line not stated here;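 also: potency is read from the fitted curve at half-maximal effect; % of control where 0% means no effect; nearly all actives have a fitted effect of over 65% in size; a mitochondrial uncoupler was the plate control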
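Fluorescence from anti-PINK1 antibody, together with nuclear and cell stains, was scanned on a laser-scanning cytometer. Before staining, stable-line cells were incubated 24 hours with compounds at 5 concentrations; primary antibody 12 h at 10 degrees C.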
TRPML1 agonist: activates the human TRPML1 channel | TRPML1-expressing cells, Ca2+ dye fluorescence, FDSS; host cell line not named in the record; reference of the full effect not given here | activation, % (concentration not given with the values) | hit rate 0.12% among 410,000; in the data active = activation above about 50%; inconclusive = about 30% to 50%; inactive = below about 30%; also: 0% is about no effect; the text of the record puts the active cut at 80%
Target sequence (Q9GZU1 whole entry, looked up): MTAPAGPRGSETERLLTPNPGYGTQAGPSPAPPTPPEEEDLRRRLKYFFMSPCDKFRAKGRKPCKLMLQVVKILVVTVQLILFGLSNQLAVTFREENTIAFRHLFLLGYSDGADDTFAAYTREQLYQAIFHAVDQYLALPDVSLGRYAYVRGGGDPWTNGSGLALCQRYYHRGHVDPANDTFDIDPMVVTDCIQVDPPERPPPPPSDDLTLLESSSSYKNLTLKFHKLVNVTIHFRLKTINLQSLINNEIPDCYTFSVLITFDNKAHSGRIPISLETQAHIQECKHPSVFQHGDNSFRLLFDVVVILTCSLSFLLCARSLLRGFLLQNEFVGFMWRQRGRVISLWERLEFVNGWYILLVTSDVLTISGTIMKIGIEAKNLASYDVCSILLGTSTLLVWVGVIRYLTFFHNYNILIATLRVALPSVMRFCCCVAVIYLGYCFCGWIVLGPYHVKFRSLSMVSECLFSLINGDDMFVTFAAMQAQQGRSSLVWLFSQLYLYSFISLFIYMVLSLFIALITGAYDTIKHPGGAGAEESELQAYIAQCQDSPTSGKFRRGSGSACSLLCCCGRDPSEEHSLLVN
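Agonist activity was taken from a 110 s kinetic Ca2+ dye read on the FDSS after pinning compounds onto TRPML1-DL cells. The cells were seeded at 1,500/well with Tet inducer, incubated about 16 h, then dye-loaded at room temperature.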
Six1-Eya2 blk: blocks human Six1 binding to Eya2. Q15475+O00167. AlphaScreen GST-Six1/His-Eya2 binding, biochemical; active compounds read low; control for the full effect not named in the record. activity change, % (no concentration beside the values). hit rate 0.56% among 360,000. AID 651725; in the data active = activity change below about -65%; inconclusive = about -30% to -65%; inactive = above about -30%; also: % is scaled to controls: 0 for no effect and ±100 for the full control effect
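AlphaScreen with GST-Six1 and His-Eya2 (5X mix: 250 nM and 500 nM), glutathione donor and nickel acceptor beads; buffer 50 mM Tris pH 8.0, 300 mM NaCl, 1 mM TCEP; 1 h at 37 C in the dark.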
Numbers without * were called inactive; ? = inconclusive; nt = not tested or not shown; & = joins results of further samples; [ ] = dose if it differs, or a comment. Compounds as they come. Share with any hit: about 1.3%.

SMILES	D2 agonist	D2 potentiator	CtBP-E1A inh	PINK1 expr mod	TRPML1 agonist	Six1-Eya2 blk
COc1cccc(-c2nnc(SCCC(=O)O)n2C)c1	0.2	-7	-2	-6.2%[38.3 µM]	0.6	0
CCCc1nc2nc(C)c(NS(=O)(=O)c3ccc([N+](=O)[O-])cc3)c(=O)n2[nH]1	4.9	6	-7	0.4%	1.7	8
O=C(Nc1ccc(N2CCCCCC2)cc1)c1ccccc1Cl	-0.9	-6	?	0.2%	0.2	?
O=C(N/N=C1\CC(c2ccccc2)Oc2ccccc21)c1ccccn1 (stereo unspecified)	-4.3	-6	-3	1.4%	0.4	9
COc1ccc(-c2csc(Nc3cccnc3)n2)cc1	-4.6	6	-9	3.4%	2.8	-1
CC1CN(Cc2c(O)ccc3c(=O)c(-c4ccccc4)coc23)CC(C)O1 (stereo unspecified)	1.3	-1	-7	-0.9%	1.1	1
Cc1[nH]nc2c1C1(CCN(C(=O)OCc3ccccc3)CC1)C(C#N)=C(N)O2	-3.1	11	2	0.5%	-0.4	7
Cc1cccc(C)c1NC(=O)NC1(C(=O)N2CCN3CCCC3C2)CCCCC1 (stereo unspecified)	3.9	-6	6	3.1%	-0.1	0
CCCCCNC(=O)CSC1=N/C(=C\c2ccc(Cl)c(Cl)c2)C(=O)N1CC	-3.9	0	4	0.7%	-0.5	8
NS(=O)(=O)c1ccc(-c2cccc(/C=C3\SC(=O)NC3=O)c2)cc1	-2.5	-1	-16	-1.0%	-0.8	-13
CCOC(=O)N1CCN(S(=O)(=O)c2ccc3c(c2)CC(C)N3C(=O)C2CC2)CC1 (stereo unspecified)	-7.1	-6	0	-0.2%	-0.9	0
Cn1c(N)c(C(=O)COC(=O)/C=C/c2ccc(Cl)cc2)c(=O)n(C)c1=O	1.7	4	4	5.7%	0.3	?
Cc1[nH]c2ccc(C(=O)OC(C)C(=O)NC3(C#N)CCCCC3)cc2c1C (stereo unspecified)	0.0	12	-3	3.2%	0.4	-11
Cc1cc(C(F)F)nn1CC(=O)NC1CCCC1	4.9	-3	5	0.7%	0.3	-2
COc1cc(C2CC(=O)N(CC(=O)NCC3CCCO3)c3ccccc3S2)cc(OC)c1OC (stereo unspecified)	-2.1	1	2	-0.7%	-0.5	5
CCc1ccc(C(=O)NC(C(=O)NCC2CCCO2)C(C)C)cc1 (stereo unspecified)	-3.7	3	-1	0.4%	-0.2	1
CCOC(=O)c1oc2cc(C)cc(O)c2c(=O)c1-c1csc(C)n1	-5.9	-2	1	-0.2%	0.9	4
Cc1cccc(CSc2ncnc3nc[nH]c23)c1	0.4	-2	6	2.1%	0.2	1
NC(=O)c1cc(-c2ccccc2)nc(N2CCCCCC2)n1	-5.7	-8	11	3.9%	0.0	9
Cc1ccc(C(=O)NCC(=O)OCC(=O)NC(C)c2ccccc2)s1 (stereo unspecified)	-4.1	-12	-9	1.6%	1.1	-2
COc1ccccc1N(C)S(=O)(=O)c1ccc(C(=O)NCc2ccccc2CN2CCCC2)cc1	4.6	-4	-3	-0.5%	1.2	-3
COc1ccc(/C=N/NC(=O)c2nn(-c3ccccc3)c(=O)c3c(N)scc23)cc1	6.7	24	-30	-0.2%	1.0	?
O=C(CSc1ccc(Cl)cc1Cl)N1CCC(c2nc3ccccc3s2)CC1	-1.0	-5	7	4.2%	0.0	-4
COc1ccccc1OCCc1nnc(N)s1	-2.6	-9	2	5.8%[38.3 µM]	-0.4	1
Cc1ccc2c(CN3CCN(S(=O)(=O)c4ccc(Cl)cc4)CC3)cc(=O)oc2c1C	-10	-21	4	-2.4%	1.9	-3

3 entries from above in a different format:
Each structure is followed by: D2 agonist, D2 potentiator, CtBP-E1A inh, PINK1 expr mod, TRPML1 agonist, Six1-Eya2 blk
Cc1[nH]nc2c1C1(CCN(C(=O)OCc3ccccc3)CC1)C(C#N)=C(N)O2
    -3.1, 11, 2, 0.5%, -0.4, 7
Cc1cccc(C)c1NC(=O)NC1(C(=O)N2CCN3CCCC3C2)CCCCC1 (stereo unspecified)
    3.9, -6, 6, 3.1%, -0.1, 0
CCCCCNC(=O)CSC1=N/C(=C\c2ccc(Cl)c(Cl)c2)C(=O)N1CC
    -3.9, 0, 4, 0.7%, -0.5, 8

(listing goes on)
SMILES	D2 agonist	D2 potentiator	CtBP-E1A inh	PINK1 expr mod	TRPML1 agonist	Six1-Eya2 blk
Cc1cc(C(=O)NNC(=O)c2ccc(F)cc2)c(C)s1	-5.2	-11	-12	-1.0%	0.9	8
Cc1ccc(S(=O)(=O)CCC(=O)N2CCN(c3ccccc3F)CC2)cc1	-2.0	-6	6	-0.2%	-0.8	0
O=S(=O)(O)c1cccnc1SCc1ccccc1	-1.8	-6	-7	-1.0%	-0.2	-22
CCCC(=O)N1CCC1(C)C(=O)NS(=O)(=O)c1ccccc1 (stereo unspecified)	-4.1	-7	15	1.2%	0.0	10
Cc1ccc(-c2nnn(CC(=O)N(CC3CCCO3)C(C(=O)NCC3CCCO3)c3ccc(F)cc3)n2)o1 (stereo unspecified)	0.8	-9	4	0.7%	-0.8	-1
CCC(CC)C(=O)c1c[nH]c(C(=O)NN)c1	-1.8	-7	-14	7.8%	1.9	0
Cc1csc(NC(=O)c2cc(C)on2)n1	-2.3	-2	10	0.8%	0.3	2
Cc1cccc(C(=O)NC(=S)N2CCN(c3ccc([N+](=O)[O-])cc3)CC2)c1	-1.5	-10	-3	1.5%	0.0	-11
NC(=O)CSCc1cccc(Br)c1	-3.2	17	4	0.1%	-0.3	0
Cc1cc2c(=O)n(C)c(SCC(=O)NCC3CCCO3)nc2s1 (stereo unspecified)	-2.5	-2	1	2.2%	0.5	20
CCOC(=O)C1(CCOc2ccccc2)CCN(Cc2cccc(OC)c2O)CC1	2.2	-24	-22	1.3%	0.4	-11
CCOC(=O)C(C)On1c(-c2ccc(Cl)cc2)nc2ccc([N+](=O)[O-])cc21 (stereo unspecified)	2.3	-12	-6	1.6%	1.2	-14
O=C(O)c1ccccc1OCC1CCCO1 (stereo unspecified)	2.4	-1	5	2.1%	0.2	12
Cc1cc(Oc2cnn(C(C)(C)C)c(=O)c2Cl)cc(C(C)C)c1	0.3	-26	6	nt	0.0	4
COc1ccc(N2Cc3cccc(C(=O)O)c3C2=O)cc1	1.9	6&9	1&11	1.7%&0.2%	-0.5&0.1	-3&6
Cc1ccc(Nc2ncnc(Cl)c2N)cc1	-3.3	-13	4	3.8%	-0.1	-10
COC(=O)[C@@]1(Cc2ccccc2)[C@H]2C(=O)N(C)C(=O)[C@H]2[C@H]2CN=C(SC)N21	-0.9	nt	4	-0.8%	-0.2	10
O=[N+]([O-])c1cccc(-c2ccc(/C=N/n3c(-c4ccccc4)n[nH]c3=S)o2)c1	8.0	3	-2	?	2.2	-3
O=C(Nc1nnc(COc2ccc(Cl)cc2)s1)c1ccco1	-0.2	-1	-4	-0.8%	0.7	-5
CCOc1ccccc1NC(=O)COc1cccnc1[N+](=O)[O-]	5.2	-3	-1	2.6%	-0.1	-7
Cc1cc(-c2cn3ccccc3n2)c(C)n1-c1ccccc1	-3.5	-18	0	?	1.7	-10
Cc1nc2cc(Nc3nnc(-c4ccccc4)c4ccccc34)ccc2n1C	-2.2	-12	-24	0.1%[38.3 µM]	-0.6	-27
Cc1ccc2nc(Nc3nc(-c4ccccc4)cc(=O)[nH]3)nc(C)c2c1	-2.7	-8	-3	4.3%	-1.3	3
COc1ccccc1CCNC(=O)C(=O)c1cn(CC(=O)N2CCCC2)c2ccccc12	1.0	-9	-12	-1.4%	-0.3	6
O=C(Cc1ccccc1)NCCc1cccc(Cl)c1	-2.1	-16	10	-1.3%	-0.5	6

The final 3 records of the section before come first, to join the parts:
SMILES	D2 agonist	D2 potentiator	CtBP-E1A inh	PINK1 expr mod	TRPML1 agonist	Six1-Eya2 blk
Cc1ccc2nc(Nc3nc(-c4ccccc4)cc(=O)[nH]3)nc(C)c2c1	-2.7	-8	-3	4.3%	-1.3	3
COc1ccccc1CCNC(=O)C(=O)c1cn(CC(=O)N2CCCC2)c2ccccc12	1.0	-9	-12	-1.4%	-0.3	6
O=C(Cc1ccccc1)NCCc1cccc(Cl)c1	-2.1	-16	10	-1.3%	-0.5	6
O=C(CNS(=O)(=O)c1ccccc1F)OCC(=O)c1c[nH]c2ccccc12	4.0	-2	-3	-0.6%	0.1	3
CN(C)c1ccc(/C=N/NC(=O)CN(c2ccccc2Cl)S(C)(=O)=O)cc1Br	-4.5	4	-4	1.3%	0.7	?
COc1ccc(C2=Nc3ccccc3OC2)cc1	-4.6	-4	6	-1.8%	-0.1	3
COc1cc2c(cc1OC)CN(C(=O)CCC(=O)c1ccc(F)cc1)CC2	-3.1	-11	nt	8.2%	-0.5	3
CCCCCC(=O)Nc1cccc(C2=NOC3(C2)C[C@H](C(N)=O)N(C(=O)c2ccccc2)C3)c1 (stereo partly specified)	1.8	-11	-8	-1.5%	-0.6	1
COc1ccccc1CN(C)C(=O)CN1CCN(C(=O)c2cccs2)CC1	14	12	nt	-0.7%	-0.1	9
Cc1ccccc1NC(=O)NC1(C(=O)NCc2ccco2)CCCCC1	-3.7	-10	-5	-1.1%	0.4	8
Cc1ccc(NC(=O)CCNC(=O)c2ccc(Cl)cc2)cc1C	-2.5	-11	-1	1.9%	nt	2
CC(=O)c1cc2c(cc1NS(=O)(=O)c1cccc(C(=O)O)c1)OCO2	-4.0	-10	-4	-1.0%	0.9	6
COc1cccc(-c2cc(C(=O)NC3CCCC3)no2)c1	-2.2	-4	3	2.1%	1.3	-2
O=C(c1ccc(CNS(=O)(=O)c2ccc(Br)cc2)cc1)N1CCCC1	0.7	-8	nt	-0.5%	1.5	10
O=C(Oc1cccc(C(=S)N2CCOCC2)c1)c1cc([N+](=O)[O-])cc([N+](=O)[O-])c1	41*	25	-2	-0.9%	0.7	-8
CCCC(C(=O)NCC1CCCO1)N(Cc1ccccc1)C(=O)CNS(=O)(=O)c1ccccc1 (stereo unspecified)	-1.3	-4	6	-2.2%	-0.6	-6
NS(=O)(=O)c1cccc(NC(=O)CCN2C(=O)C3CCCCC3C2=O)c1 (stereo unspecified)	-0.8	-1	-5	1.8%	0.7	1
CCc1ccccc1NC(=O)c1cccs1	-4.6	0	8	0.5%	-0.9	-2
N#Cc1c(NC(=O)CN2CCN(C(=O)c3ccco3)CC2)sc2c1CCCCC2	3.6	-11	6	0.0%[38.3 µM]	-0.6	-5
CCN(CC(=O)NCc1cccs1)C(=O)c1ccc(S(=O)(=O)Nc2ccccc2OC)cc1	-0.3	26	-3	2.3%	0.5	1
Cc1ncc([N+](=O)[O-])n1CCN1C(=O)c2ccccc2C1=O	-3.0	-4	9	1.1%	-1.3	2
CCn1nc(C)cc1C(=O)Sc1ccc(C)cc1	-2.9	1	3	1.5%	2.4	9
CCOC(=O)N(NC(=O)C(O)(C(C)C)C(C)C)c1ccccc1	-1.0	-8	nt	0.6%	0.5	1
CC1=C(C(N)=O)C(c2ccccc2F)n2nc(CCCO)nc2N1 (stereo unspecified)	-2.1	-4	-10	-1.5%	0.3	9
Cc1nnc(SCC(=O)N2CCOCC2)n1C	0.4	13	1	-0.3%	-0.3	5
